PABP FP inh = blocks human PABP binding to poly(A) RNA; fluorescence polarization; inhibition, % at 35 µM; 1% of 290,000 active; AID 2014;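 active = 50% or more with normal probe brightness, or confirmed in later tests; inconclusive = above 50% with abnormal brightness, or retests that disagree; inactive = below 50% or failed in later tests; about a fifth of its hits are not listed in these tables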;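 note: calls also rest on retests at 20 µM and on dose response follow-up; controls were probe without protein and protein plus probe with vehicle; some compounds called inactive have numbers as strong as hits; many hits fall short of the cut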
MT1-MMP act inh = blocks activation of human MT1-MMP; HT1080 RFP-PRO-GFP cells, GFP/RFP ratio fluorescence, overnight; percent of plate control window, DMSO zero; P50281; 0.061% of 360,000 active; GFP/RFP ratio change, % at 20 µM;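 active = GFP/RFP ratio change of at least 30% with cell ATP level not reduced by more than half and red fluorescence within 50% of control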; note: strong numbers were not always called active
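Test system: HT1080 RFP-PRO-GFP cells; Benchmarks: DMSO and RFP-L50D-GFP cell wells; Timing: cells overnight before dosing, compound overnight, 37 °C, 5% CO2; Compound: one 20 µM compound dose with 1% DMSO; Read-out: GFP/RFP fluorescence ratio.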
Yeast UUG start = modulators of start codon recognition fidelity in yeast | AID 602363 | S. cerevisiae UUG-firefly luciferase reporter, luminescence/redox ratio | 0.13% of 350,000 active | activity score, % at 18.7 µM;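 active = replicate mean at a twofold rise or more, about +100% in these data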;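 note: firefly luciferase made from a UUG start codon reports start codon fidelity; reporter light over untreated wells divided by growth signal over untreated wells; some hits fall short of that in this replicate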
eIF4H FP inh = inhibitors of RNA binding by human eIF4H. Q15056. eIF4H fluorescence polarization binding assay. 0.94% of 290,000 active. inhibition, % at 35 µM;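 active = 50% or more with normal probe brightness, or confirmed in later tests; inconclusive = above 50% with abnormal brightness, or retests that disagree; inactive = below 50% or failed in later tests; about a fifth of its hits are not listed in these tables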;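 note: calls also rest on retests at 20 µM and on dose response follow-up; 0% = protein and probe with vehicle and 100% = probe without protein; strong numbers were not always called active; many hits fall short of the cut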
Env fusion inh = blocks HIV Env-driven cell-cell fusion; HeLa-JRFL Env/CEM21 cell fusion, luciferase; inhibition, % at 12.3 µM; 1.1% of 360,000 active;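 active = mean replicate inhibition score of at least 50 and every replicate individually at or above 50; inconclusive = only one of the two criteria met; inactive = mean below 50 and not all replicates reaching 50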;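 note: 0% = plate neutral controls and 100% = maraviroc near 300 nM; one replicate is shown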
CSC inhib = cancer stem cell inhibition; inhibition, % at 7.5 µM; 1.1% of 300,000 active; AID 2717; cancer stem cell-like cells viability, luminescence;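 active = mean at 75% or more and at least half the replicates too; inconclusive = mean and replicates disagree; tested in HMLE shEcad cells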;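 note: 0% = median of negative and 100% = median of positive control wells; the first replicate is given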
Rce1 inh = blocks yeast Ras-converting enzyme | Q03530 | yeast membranes, quenched prenylated peptide cleavage fluorescence | calls only | 0.27% of 290,000 active | AID 2563;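 active = fall in fluorescence gain of 50% or more versus controls, with final raw signal at or below 3038400; inconclusive = same 50% fall but final raw signal above 3038400; inactive = fall in fluorescence gain under 50%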;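 note: plate controls were neutral control wells for no effect and wells lacking membranes for full effect; tested at 10 µM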
Target sequence (Q03530 whole entry, looked up): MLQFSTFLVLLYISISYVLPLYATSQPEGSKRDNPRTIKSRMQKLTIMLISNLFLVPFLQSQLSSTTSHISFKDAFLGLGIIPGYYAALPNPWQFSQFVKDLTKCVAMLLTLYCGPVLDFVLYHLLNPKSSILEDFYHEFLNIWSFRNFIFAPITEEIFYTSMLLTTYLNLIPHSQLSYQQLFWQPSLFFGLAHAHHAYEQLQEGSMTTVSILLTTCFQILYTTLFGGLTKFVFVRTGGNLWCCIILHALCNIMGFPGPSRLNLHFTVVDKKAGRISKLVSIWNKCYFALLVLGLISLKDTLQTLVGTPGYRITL
MT1-MMP act inh RFP = recorded beside MT1-MMP act inh, whose call it bears; RFP signal change, %; measured here: RFP expression control read;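 0 = vehicle wells; hits needed this value within 50% of zero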
* = called active by the depositor; i = inactive; ? = inconclusive; · = no result given; & = joins results of further samples. These rows are one share of the data; the hit share may differ from the screen's.

Values run as follows: CSC inhib, Env fusion inh, Rce1 inh, Yeast UUG start, PABP FP inh, eIF4H FP inh, MT1-MMP act inh RFP, MT1-MMP act inh
> O=C(Nc1ccc(S(=O)(=O)N2CCCC2)cc1)C1CCCN1C(=O)c1cccs1 (stereo unspecified)
 : 3, -30, i, ·, 2, -6, 4, 2
> O=C(CCC1CCCN(C(=O)Cc2ccc(F)cc2)C1)N1CCN(c2ccccn2)CC1 (stereo unspecified)
 : -11, 2, i, ·, 0, -7, -4, 2
> Nc1nc(NCc2ccccc2)nc(NCc2ccccc2)c1[N+](=O)[O-]
 : -9, 10, i, -11, -7, -6, 0, 8
> COc1ccc(CC(=O)Nc2ccc3c(c2)CCC3)cc1
 : -1, -8, i, ·, 1, 4, 1, 4
> O=C(CSCc1ccc(Cl)cc1)Nc1ccc(S(=O)(=O)N2CCOCC2)cc1
 : 2, 3, i, -7, 38, -11, -4, -2
> S=C(NCc1cccnc1)Nc1cccc(Cl)c1
 : ·, ·, i, -14, 6, -1, -1, -1
> CNC(=O)C1=C(C)n2c(nc3ccccc32)NC1c1ccc(OC)cc1 (stereo unspecified)
 : 3, ·, i, -13, -16, 1, 4, -5
> CCOc1ccc2c(c1)n(CO)c(=S)n2CO
 : 5, i, i, -14, -12, -15, -1, 1
> CN(C)S(=O)(=O)NC(c1ccccc1)c1ccccc1
 : 6, -16, i, -11, 5, 10, -4, -4
> O=C(COc1ccc2c3c(c(=O)oc2c1)CCC3)NCc1ccncc1
 : 8, -19, i, -8, 5, -11, -1, 0
> COc1ccccc1/C=C1\SC(=S)N(CCC(=O)N2CCCCC2CCO)C1=O (stereo unspecified)
 : 7, 6, i, 2, -8, -20, -6, -4
> Cc1nnc(SCc2ccc3c(c2)OCO3)s1
 : 5, -105, i, -17, -4, -6, 1, -1
> COc1ccc(CNC(=O)CN(C(=O)CCC(=O)Nc2nccs2)c2ccc(C)cc2)cc1
 : ·, -5, i, -10, 4, 3, 1, 0
> Cc1ccccc1N(CC(=O)NC(C)(C)C)C(=O)CCC(=O)Nc1nccs1
 : -7, -13, i, -17, -3, 1, 4, 0
> COC(=O)CSc1[nH]c(=O)cc(C)c1C#N
 : -10, ·, i, ·, 10, -5, 5, 0
> Cc1cccc(N2CCN(C(=O)Cn3sc4nc(C)cc(C)c4c3=O)CC2C)c1 (stereo unspecified)
 : 10, ·, i, -54, -1, 1, 1, -4
> Cc1occc1C(=O)NC(C)C1CCCO1 (stereo unspecified)
 : -11, -34, i, 9, -2, 20, 4, -4
> COc1ccc(N2CCN(C(=O)c3ccc4[nH]c(C)c(C)c4c3)CC2)cc1
 : -16, -22, i, 0, 6, -6, 0, -2
> CCCn1cc([C@@H]2C[C@H]3CN(Cc4cccc(Cl)c4)C(=O)[C@]34CCCN24)c(C)n1
 : -2, 13, i, -22, 4, -8, 2, -1
> CCc1ccccc1NC(=S)N(CCN(C)C)C(C)c1ccco1 (stereo unspecified)
 : 0, -1, i, ·, -12, 12, 1, -4
> O=C1c2ccccc2C(=O)C12OC2c1ccc(Cl)cc1Cl (stereo unspecified)
 : 69, 37, ·, ·, -3, -1, -3, -1
> Cc1c(S(=O)(=O)Nc2cccc3ccccc23)c(=O)n(C)c(=O)n1C
 : -22, 9, i, -6, ·, ·, 2, 3
> CC(=O)Nc1ccc2c(c1)nc1n2CCN(C2CCCCC2)C1
 : ·, -3, ·, ·, 16, 0, 4, -3
> COc1cc(C(=O)NCC(c2ccco2)N2CCOCC2)cc(OC)c1OC (stereo unspecified)
 : -9, 2, i, -14, ·, ·, -1, 8
> COc1cc2c(cc1O)CCN(C(=O)c1ccco1)C2C (stereo unspecified)
 : -5, -131, i, -4, -8, -8, 0, -2
> COc1ccccc1C1CC(=O)NC(SCC(=O)Nc2ccccc2)=C1C#N (stereo unspecified)
 : ·, 23, i, -17, 11, -3, -3, 7
> CCCCCC(=O)NN=C1CCN(Cc2ccccc2)CC1
 : ·, 10, i, -8, 15, 1, 3, -2
> COc1ccccc1NC(=O)C(C)OC(=O)CSCC(=O)Nc1ccc(C)cc1C (stereo unspecified)
 : -7, 1, ·, -2, ·, ·, 0, 3
> Cc1c(C(=O)NCCC#N)sc(=O)n1Cc1ccc(C(=O)N(C)C)cc1
 : ·, 9, ·, -27, ·, ·, 5, 4
> CCCCN(C(=O)CC1CCCC1)c1c(N)n(CCC)c(=O)[nH]c1=O
 : 7, 9, ·, -15, ·, ·, -1, -4
> Cc1cc(C(F)(F)F)nc(CCNC(=O)C2CCC(=O)N(Cc3cccc(F)c3)C2)n1 (stereo unspecified)
 : -16, ·, i, -24, 0, -3, 4, 1
> Cc1noc(C)c1S(=O)(=O)NC(=O)C1(C)CCN1C(=O)c1ccc(C2CCCCC2)cc1 (stereo unspecified)
 : ·, 15, ·, -2, ·, ·, 1, -4
> CC(=NNC(=O)c1ccncc1)c1ccccc1O
 : ·, 31, ·, -16, ·, ·, -1, -6
> Cc1cc(S(=O)(=O)NC(C)C)ccc1OCC(=O)NCc1ccccc1
 : 11, 7, i, ·, 5, -8, -3, -4
> O=C(O)Cn1c2ccccc2c2n[nH]c(=S)nc21
 : -17, -2, i, -14, 15, 13, ·, ·
> CC(=O)c1ccc(NC(=S)NCc2cccnc2)cc1
 : 20, 16, i, -22, 12, 2, 0, 2
> COc1ccc(C(=S)N2CCNCC2)cc1
 : 6, -22, i, -12, -7, -8, 0, -3
> Cc1cccc2cc(CN(CC3CCCO3)C(=O)c3cccs3)c(=O)[nH]c12 (stereo unspecified)
 : -5, 6, i, -5, -8, -4, 6, 0
> O=C(O)CSc1nnc(-c2ccccc2Br)n1-c1cccc(C(F)(F)F)c1
 : -9, 4, i, ·, 19, -1, 7, 3
> C[C@H](CO)N1C[C@H](C)[C@H](CN(C)C(=O)c2ccccn2)Oc2ncc(Br)cc2C1=O
 : ·, -9, ·, -11&7, ·, ·, 0, 1
> CC1(C)CC(C(N)=S)CCO1 (stereo unspecified)
 : -11, -17, i, ·, 11, -6, 2, 1
> Cc1cc(NC(=O)c2ccccc2)ncc1NC(=O)c1cccs1
 : 20, -9, i, -15, -6, 17, 3, 4
> COc1ccc(OC)c(NC(=O)CSc2nc(N3CCOCC3)nc(N3CCOCC3)n2)c1
 : -5, 6, i, -6, 2, -9, 2, -5
> CCC(C)NS(=O)(=O)c1ccc(N)cc1 (stereo unspecified)
 : -7, 14, i, -14, -6, 2, 2, -1
> C[C@]1(O)CC(=O)C=C[C@H]1Nc1ccccc1
 : ·, 6, ·, -15, ·, ·, -3, 1
> Cc1ccc(NC(=O)CCNS(=O)(=O)c2ccc3c(c2)CCC(=O)N3)cc1F
 : ·, -7, i, 5, -14, -7, 3, 2
> Cn1cc(S(=O)(=O)N2CCc3ccccc32)cc1C(=O)NC1CCCCC1
 : -14, 15, i, -16, -1, -5, 8, 5
> O=C(CSc1nnc(-c2cccs2)o1)c1cccs1
 : 0, -18, i, -20, 1, -11, 2, 2
> Cc1noc(C)c1C(=O)OCC(=O)/C=C1/N(C)c2ccccc2C1(C)C
 : ·, 46, ·, -12, ·, ·, -13, 4
> COc1cc(OC)c(OC)cc1CNc1cc(C)ccc1OC
 : 4, ·, i, -9, 3, 13, -24, -3

(listing goes on)
Values run as follows: CSC inhib, Env fusion inh, Rce1 inh, Yeast UUG start, PABP FP inh, eIF4H FP inh, MT1-MMP act inh RFP, MT1-MMP act inh
> COc1cc(CC(=O)OCc2ccccc2F)cc(OC)c1OC
 : -18, -12, i, -6, 7, 4, 0, 0
> CCOC(=O)C1=CN(Cc2ccccc2)CCC1=O
 : ·, 17, ·, -13, ·, ·, 6, 3
> CSc1n[nH]c(NC(C)=O)n1
 : 11, ·, i, ·, 2, 1, 6, 3
> CC1(C)C(=O)Nc2ccccc2N1C(=O)Cn1ncc(Cl)c(Cl)c1=O
 : ?, -20, i, ·, -3, 12, -1, 0
> CCOC(=O)C1=C(C)N=c2sc(=Cc3cc(Cl)c(OCC(=O)O)c(OC)c3)c(=O)n2C1c1ccccc1Cl (stereo unspecified)
 : ·, -8, ·, -17, ·, ·, -13, -27
> C(=N\N(c1ccccc1)c1ccccc1)/c1ccc(N2CCOCC2)s1
 : 13, 4, i, ·, -3, 3, -2, -14
> Cc1ccc(S(=O)(=O)N(C)c2cc(S(N)(=O)=O)c(C)cc2C)cc1
 : 10, -9, i, ·, -5, 2, -1, 2
> O=C1NC(Cc2ccc(O)cc2)c2nc3cc(F)ccc3c(=O)n2-c2ncccc21 (stereo unspecified)
 : ·, 43, ·, -9, ·, ·, -1, -6
> COc1ccc(C(=O)NCc2cc(C(C)C)no2)cc1OC1CCN(C(C)C)CC1
 : -5, -5, i, -40, -13, 10, 3, -2
> Cc1nnc(NC(=O)CSc2ccc3nnc(-c4cccnc4)n3n2)s1
 : -15, ·, i, ·, 0, 20, ·, ·

Seven entries drawn at random from the list so far, as already listed:
Values run as follows: CSC inhib, Env fusion inh, Rce1 inh, Yeast UUG start, PABP FP inh, eIF4H FP inh, MT1-MMP act inh RFP, MT1-MMP act inh
> CC1(C)C(=O)Nc2ccccc2N1C(=O)Cn1ncc(Cl)c(Cl)c1=O
 : ?, -20, i, ·, -3, 12, -1, 0
> CCOC(=O)C1=CN(Cc2ccccc2)CCC1=O
 : ·, 17, ·, -13, ·, ·, 6, 3
> COc1cc(CC(=O)OCc2ccccc2F)cc(OC)c1OC
 : -18, -12, i, -6, 7, 4, 0, 0
> C(=N\N(c1ccccc1)c1ccccc1)/c1ccc(N2CCOCC2)s1
 : 13, 4, i, ·, -3, 3, -2, -14
> COc1ccc(C(=O)NCc2cc(C(C)C)no2)cc1OC1CCN(C(C)C)CC1
 : -5, -5, i, -40, -13, 10, 3, -2
> O=C1NC(Cc2ccc(O)cc2)c2nc3cc(F)ccc3c(=O)n2-c2ncccc21 (stereo unspecified)
 : ·, 43, ·, -9, ·, ·, -1, -6
> Cc1ccc(S(=O)(=O)N(C)c2cc(S(N)(=O)=O)c(C)cc2C)cc1
 : 10, -9, i, ·, -5, 2, -1, 2

(cont.)
Values run as follows: CSC inhib, Env fusion inh, Rce1 inh, Yeast UUG start, PABP FP inh, eIF4H FP inh, MT1-MMP act inh RFP, MT1-MMP act inh
> CS(=O)(=O)Cc1cc(Sc2ccccc2)nc(-c2ccncc2)n1
 : -14, 12, i, -15, -2, -14, -4, -2
> CCCN1CCN(C(=O)Nc2ccc(C(=O)OCC)cc2)CC1
 : -16, -103, i, -16, 0, -3, 5, 2
> COc1ccccc1OCCNC(=O)c1cccc(S(=O)(=O)NCc2ccccc2)c1
 : 3, 2, ·, -34, ·, ·, -6, 4
> COCCNC(=O)c1cccc2c(-c3ccnn3C)coc12
 : ·, -48, ·, -11, ·, ·, 5, 4
> C=CCNC(=O)c1ccccc1NC(=O)c1ccccc1
 : -8, -11, i, 1, 8, 8, 4, 0
> O=C(O)c1ccc2c(c1)C(=O)N(Cc1ccccc1)C2=O
 : -1, -76, i, -14, -3, -11, 5, 2

Screening data from PubChem.
